Screens (PubChem)
GIV-Gai inh: inhibitors of GIV peptide binding to Galpha-i3, primary screen, biochemical, fluorescence polarization, FITC-GIV GBA peptide, rat Galphai3; 90 min; active compounds read low; scaled: aluminum fluoride 0%, vehicle 100%; percent of control (FP), % (no concentration beside the values); Guanine nucleotide-binding protein G(i) subunit alpha-3 (Rattus norvegicus), P08753; 0.42% of 210,000 active;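 active = replicate mean at 85% of control or lower, very high polarization wells dropped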;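 note: wells of about 15 µL received 100 nL stock; the first replicate is given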
Target sequence (P08753 whole entry, looked up): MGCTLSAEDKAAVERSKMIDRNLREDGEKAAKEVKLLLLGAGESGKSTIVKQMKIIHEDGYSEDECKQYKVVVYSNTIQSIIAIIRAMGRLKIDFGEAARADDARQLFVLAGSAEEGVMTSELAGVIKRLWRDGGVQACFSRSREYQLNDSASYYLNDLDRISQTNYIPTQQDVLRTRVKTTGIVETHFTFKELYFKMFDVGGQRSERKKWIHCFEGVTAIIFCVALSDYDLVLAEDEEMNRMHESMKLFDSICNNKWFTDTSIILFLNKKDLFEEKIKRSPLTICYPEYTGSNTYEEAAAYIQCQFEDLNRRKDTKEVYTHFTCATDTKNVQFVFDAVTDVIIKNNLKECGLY
An asterisk follows results filed as active.

Screening CCCCn1c(CNC(=O)c2ccc(C)c(C)c2)nnc1SC(C)C(=O)Nc1sc(C(=O)OCC)c(C)c1C(=O)OCC (stereo not given) returned GIV-Gai inh 99.2.
Screening Cc1ccc(C)c(NC(=O)CSC2=C(C#N)C(c3cccs3)C3=C(CCCC3=O)N2)c1 (stereo not given) returned GIV-Gai inh 108.6.
`Cc1ccc(C(=O)N2CCCC2c2cc(C)no2)cc1` (stereo not given) gave GIV-Gai inh 100.2.
For Nc1ccc(N2S(=O)(=O)c3ccccc3S2(=O)=O)cc1 the results were GIV-Gai inh 105.4.
Screening CCOc1ccc(-c2cc3cc(OC)c(OC)cc3c(CC)n2)cc1 returned GIV-Gai inh 108.7.
CN(CC1COCCO1)c1ccc(NC(=O)c2ccc(Br)cc2)cc1C(=O)O (stereo not given) was read as GIV-Gai inh 104.5.
Screening CCS(=O)(=O)c1nc2ccc(NS(=O)(=O)CCc3ccccc3)cc2s1 returned GIV-Gai inh 107.8.
O=C1Nc2cc(C(=O)N3CCN(c4ccccn4)CC3)ccc2NC1CS(=O)(=O)Cc1ccc(F)cc1 (stereo not given) was read as GIV-Gai inh 101.8.
`O=C(Nc1ccccc1Cl)c1c(NC(=O)C(F)(F)F)sc2c1CCC2` gave GIV-Gai inh 114.4.
Cc1ccc(NC(=O)c2sc3nc4c(cc3c2N)C(=O)CC(C)(C)C4)cc1 was read as GIV-Gai inh 106.9.
CCOCCCNC(=O)C1CCCN(c2cc(=O)n(C)c(=O)n2C)C1 (stereo not given) was read as GIV-Gai inh 106.9.
For Cc1noc(C)c1CC(=O)N1CCCCC1CCN1CCCCC1 (stereo not given) the results were GIV-Gai inh 99.7.
For COc1cccc(NC(=O)c2ccc3c(c2)N(C)C(=O)c2ccccc2O3)c1 the results were GIV-Gai inh 98.8.
For O=C(NCc1ccc(F)cc1Cl)c1sc2ncccc2c1-n1cccc1 the results were GIV-Gai inh 107.9.
`O=C1c2cccc([N+](=O)[O-])c2C(=O)N1C1C(=O)N(c2cccc(C(F)(F)F)c2)C1c1cccs1` (stereo not given) gave GIV-Gai inh 104.4.
For CCOC(=O)CSc1nc2ccccc2n1C(=O)OCCCl the results were GIV-Gai inh 112.5.
Screening C=CCN(CC=C)c1nc(-c2ccc([N+](=O)[O-])cc2)nc2ccccc12 returned GIV-Gai inh 107.8.
For CC1(C)CC(=O)c2c(n(S(=O)(=O)c3ccccc3)c3ccc(NS(=O)(=O)c4ccccc4)cc23)C1 the results were GIV-Gai inh 113.9.
Screening CCOC(=O)c1ccc(N=C2SC(C(=O)Nc3ccccc3F)CC(=O)N2C)cc1 (stereo not given) returned GIV-Gai inh 106.4.
For COC(=O)C1=CNC=C(C(=O)OC)C1c1ccccc1Cl the results were GIV-Gai inh 101.1.
`CCOc1cc(/C=c2/sc3nc4cc(C)c(C)cc4n3c2=O)ccc1OCc1ccccc1F` gave GIV-Gai inh 102.6.
For CCCc1cc(C2CCCN2C(=O)NC2(CC(=O)OCC)CCCCC2)no1 (stereo not given) the results were GIV-Gai inh 98.8.
For CN(Cc1cccn1C)C(=O)NC(C)(C)C the results were GIV-Gai inh 102.9.
For CCOC1CCN(C(C)=O)CC1 the results were GIV-Gai inh 101.2.
For COc1ccc(-c2csc(Nc3ccccn3)n2)cc1OC the results were GIV-Gai inh 105.7.
`CC(C)c1ccc(C2/C(=C(\O)c3ccccc3)C(=O)C(=O)N2CCCN2CCOCC2)cc1` (stereo not given) gave GIV-Gai inh 118.2.
For C=CCNC(=O)c1nc2nc(-c3ccc(C)cc3)cc(C(F)(F)F)n2n1 the results were GIV-Gai inh 103.9.
Screening C=CCNC(=O)CSCc1noc(-c2ccc(C)cc2)n1 returned GIV-Gai inh 108.9.
O=C(Nc1ccc(SCCN2CCCC2)nc1)C1COc2ccccc2O1 (stereo not given) was read as GIV-Gai inh 104.9.
For COC(=O)c1cccc(NC(=O)N2CCc3c(c(CN(C(C)=O)c4ccccc4)nn3C)C2)c1 the results were GIV-Gai inh 95.7.
`Cc1cc(=O)oc2c1ccc1occ(Nc3cccc([N+](=O)[O-])c3)c12` gave GIV-Gai inh 104.5.
`Cc1c(C(=O)N2CCC(C(=O)NC3CCN(Cc4ccccc4)CC3)CC2)sc2nc[nH]c(=O)c12` gave GIV-Gai inh 101.9.
For COc1cc(-c2[nH]nc3c2C(c2cn[nH]c2-c2ccc(F)cc2)C(C#N)=C(N)O3)cc(OC)c1OC (stereo not given) the results were GIV-Gai inh 112.4.
`CCCS(=O)(=O)N1CCCC1c1c(C)noc1C` (stereo not given) gave GIV-Gai inh 100.3.
`O=C(c1ccc2c(=O)n(Cc3ccc4c(c3)OCO4)c(=S)[nH]c2c1)N1CCC(N2CCCCC2)CC1` gave GIV-Gai inh 106.0.
CCC(Sc1nc2ccccc2c(=O)n1CC1CCCO1)C(=O)NCc1cccnc1 (stereo not given) was read as GIV-Gai inh 100.8.
For CN(C)CCNC(=O)c1nc(-c2ccc(S(=O)(=O)N(C)C)cc2)no1 the results were GIV-Gai inh 104.8.
Screening COc1ccc(-c2c[n+]3c(n2-c2ccccc2)CCCCC3)cc1 returned GIV-Gai inh 118.2.
For CC(C)c1ccc(-c2noc(N3CCC(C(=O)N4CCN(c5ncccn5)CC4)CC3)n2)cc1 the results were GIV-Gai inh 102.3.
Screening O=C(NCc1c(-c2ccc(F)cc2)nc2n1CCS2)c1ccc(F)c(F)c1 returned GIV-Gai inh 96.7.
`CCOc1ccc2c(c1)-c1c(ssc1=S)C(C)(C)N2C(=O)c1ccc([N+](=O)[O-])cc1` gave GIV-Gai inh 119.4.
For COc1ccc(CNC(=O)c2ccc3nc(-c4ccc(OC)c(OC)c4)c(-c4ccc(OC)c(OC)c4)nc3c2)cc1 the results were GIV-Gai inh 105.3.
O=C(Cn1nc2c3sc(N4CCCC4)nc3ncn2c1=O)Nc1ccc(F)cc1 was read as GIV-Gai inh 104.6.
For COc1ccc(NS(=O)(=O)c2c(C)sc(C)c2-c2cc(C(F)(F)F)on2)c(OC)c1 the results were GIV-Gai inh 104.0.
`COc1ccc(N2C(=O)C3C4c5ccccc5C(C(OC)OC)(c5ccccc54)C3C2=O)cc1` (stereo not given) gave GIV-Gai inh 108.3.

At a glance, 13 of the compounds above:
For COc1cc(-c2[nH]nc3c2C(c2cn[nH]c2-c2ccc(F)cc2)C(C#N)=C(N)O3)cc(OC)c1OC (stereo not given) the results were GIV-Gai inh 112.4.
`CCCS(=O)(=O)N1CCCC1c1c(C)noc1C` (stereo not given) gave GIV-Gai inh 100.3.
`O=C(c1ccc2c(=O)n(Cc3ccc4c(c3)OCO4)c(=S)[nH]c2c1)N1CCC(N2CCCCC2)CC1` gave GIV-Gai inh 106.0.
CCC(Sc1nc2ccccc2c(=O)n1CC1CCCO1)C(=O)NCc1cccnc1 (stereo not given) was read as GIV-Gai inh 100.8.
For CN(C)CCNC(=O)c1nc(-c2ccc(S(=O)(=O)N(C)C)cc2)no1 the results were GIV-Gai inh 104.8.
Screening COc1ccc(-c2c[n+]3c(n2-c2ccccc2)CCCCC3)cc1 returned GIV-Gai inh 118.2.
For CC(C)c1ccc(-c2noc(N3CCC(C(=O)N4CCN(c5ncccn5)CC4)CC3)n2)cc1 the results were GIV-Gai inh 102.3.
Screening O=C(NCc1c(-c2ccc(F)cc2)nc2n1CCS2)c1ccc(F)c(F)c1 returned GIV-Gai inh 96.7.
`CCOc1ccc2c(c1)-c1c(ssc1=S)C(C)(C)N2C(=O)c1ccc([N+](=O)[O-])cc1` gave GIV-Gai inh 119.4.
For COc1ccc(CNC(=O)c2ccc3nc(-c4ccc(OC)c(OC)c4)c(-c4ccc(OC)c(OC)c4)nc3c2)cc1 the results were GIV-Gai inh 105.3.
O=C(Cn1nc2c3sc(N4CCCC4)nc3ncn2c1=O)Nc1ccc(F)cc1 was read as GIV-Gai inh 104.6.
For COc1ccc(NS(=O)(=O)c2c(C)sc(C)c2-c2cc(C(F)(F)F)on2)c(OC)c1 the results were GIV-Gai inh 104.0.
`COc1ccc(N2C(=O)C3C4c5ccccc5C(C(OC)OC)(c5ccccc54)C3C2=O)cc1` (stereo not given) gave GIV-Gai inh 108.3.

Additional entries
For CCOC(=O)c1cnc2c(C)cc(C)cc2c1Nc1cccc(C)c1 the results were GIV-Gai inh 108.4.
For CC1(C)SC(=S)N(CCN2CCOCC2)C1N(O)C(=O)Nc1cccc(Cl)c1 (stereo not given) the results were GIV-Gai inh 105.6.
`CC(C)N1CCN(C(=O)C2CCN(c3cncnc3N3CCCCC3)CC2)CC1` gave GIV-Gai inh 104.2.
O=C(CN1C(=O)C2CCCN2C(=O)c2ccccc21)NCCCN1CCCCC1 (stereo not given) was read as GIV-Gai inh 99.4.
CCOc1cccc2c1OC(c1ccc(C(=O)OC)cc1)N1N=C(c3cccs3)CC21 (stereo not given) was read as GIV-Gai inh 96.6.
`Cc1ccc(C(C)NC(=O)C2CCN(c3ncc(-c4cccc(C)c4)cn3)CC2)cc1` (stereo not given) gave GIV-Gai inh 100.5.
`CN=C1S/C(=C\c2cn(C(C)=O)nc2-c2ccc(F)cc2)C(=O)N1C` gave GIV-Gai inh 99.2.
For Cc1cc(C)nc(NS(=O)(=O)c2ccc(NC(=O)C3C(C=C(Cl)Cl)C3(C)C)cc2)n1 (stereo not given) the results were GIV-Gai inh 102.3.
CCN(CC)C(=O)/C(=C/c1ccc([N+](=O)[O-])cc1)NC(=O)c1ccco1 was read as GIV-Gai inh 114.3.
Screening COc1ccc(C2Nc3ccccc3C(=O)N2c2ccccc2)cc1CN1CCOCC1 (stereo not given) returned GIV-Gai inh 101.4.
Screening Cc1sc(-c2cc(C(F)(F)F)[nH]n2)cc1S(=O)(=O)N1CCCCCC1 returned GIV-Gai inh 101.1.
O=C(Nc1ccc(Br)cc1)c1ccc(=O)n(Cc2ccccc2)c1 was read as GIV-Gai inh 104.5.
CCOC(=O)c1cc2c(nc1C)-c1ccccc1C2=NC1CCCCC1 was read as GIV-Gai inh 111.1.
`COc1ccc(C2C3=C(NCCN=C3c3ccccc3)C(=O)N2c2ccccc2)cc1OC` (stereo not given) gave GIV-Gai inh 105.1.
Screening Fc1ccc(-c2cc(-c3ccccc3)nc(Cl)n2)cc1 returned GIV-Gai inh 104.4.
Screening Cc1ccc(C)c(S(=O)(=O)N2CCc3ccccc3C2CN2C(=O)c3ccccc3C2=O)c1 (stereo not given) returned GIV-Gai inh 103.2.
CCOc1cc(C2C(C(=O)OCCSCC)=C(C)NC3=C2C(=O)CC(C)(C)C3)ccc1OC(C)=O (stereo not given) was read as GIV-Gai inh 96.8.
`COc1ccc(Br)cc1C1CC(=O)Nc2c1c(C)nn2-c1nc2ccccc2n1C` (stereo not given) gave GIV-Gai inh 105.7.
For COc1ccc(CNC(=O)c2nnn(Cc3nc(-c4ccc(C)cc4)oc3C)c2N)cc1OC the results were GIV-Gai inh 97.7.
`CCN(CC)CCn1c2ccccc2n2nc(C)c(=O)nc12` gave GIV-Gai inh 123.2.
Screening CNC(=O)CCC(=O)N1c2ccccc2NC2=C(C(=O)CC(C)(C)C2)C1c1ccccc1 (stereo not given) returned GIV-Gai inh 98.7.
`CCc1nc(-c2csc(S(=O)(=O)N3CCN(c4ccc(F)cc4)CC3)c2)no1` gave GIV-Gai inh 101.3.
O=C(c1ccc(Cn2c(=S)[nH]c3ccc(Br)cc3c2=O)cc1)N1CCN(Cc2ccc3c(c2)OCO3)CC1 was read as GIV-Gai inh 118.7.
`COC(=O)CN1C(c2ccc(Br)cc2)=Nc2ccc(Br)cc2C1c1ccccc1` (stereo not given) gave GIV-Gai inh 107.8.
COc1ccc2[nH]cc(CCNC(=O)Cn3nc(C)c4nn(-c5ccccc5)c(C)c4c3=O)c2c1 was read as GIV-Gai inh 101.0.
`CCc1ccc(OCCCC(=O)Nc2ccc(S(=O)(=O)Nc3nc(C)cc(C)n3)cc2)cc1` gave GIV-Gai inh 107.0.
`Cc1ccc(C)c(S(=O)(=O)N2CCC(c3noc(-c4cccc(F)c4)n3)CC2)c1` gave GIV-Gai inh 102.7.
Screening CCCCC(=O)N1C2=C(C(=O)c3ccccc32)C(c2cccc([N+](=O)[O-])c2)c2c1n(C)c(=O)n(C)c2=O (stereo not given) returned GIV-Gai inh 109.4.
`COc1ccccc1-c1nc(Cn2nnc(-c3nc(-c4ccc5c(c4)OCO5)no3)c2C)c(C)o1` gave GIV-Gai inh 115.9.
Cc1nc2c(C(=O)NCc3ccc4c(c3)OCO4)c[nH]n2c(=O)c1Cl was read as GIV-Gai inh 106.5.
Cc1nc(-c2cc(S(=O)(=O)N3CCN(C4CCCCC4)CC3)c(C)s2)sc1C was read as GIV-Gai inh 103.3.
`CCSc1nnc(-c2nn(C)c3c2CN(C(=O)C(C)(C)C)CC3)n1C` gave GIV-Gai inh 96.8.
O=S(=O)(NC1c2cccc3cccc(c23)C1N1CCOCC1)c1ccc(Cl)cc1 (stereo not given) was read as GIV-Gai inh 110.7.
Fc1cc2c(c(Cn3c4ccccc4c4nc5ccccc5nc43)c1)OCOC2 was read as GIV-Gai inh 117.7.
`COc1ccc(NC(=O)c2sc3nc(C)nc(N4CCCCC4)c3c2C)cc1OC` gave GIV-Gai inh 107.2.
For Cc1ccc(C2Oc3ccccc3C3=C2C(c2cccs2)n2ncnc2N3)cc1 (stereo not given) the results were GIV-Gai inh 110.4.
O=C(C1CC(=O)N(c2ccc3c(c2)CCN3C(=O)C2CC2)C1)N1CCCC1 (stereo not given) was read as GIV-Gai inh 94.0.
For Cn1c(=O)c(N2CCCCC2)c2c3c(cccc31)C(=O)c1ccccc1-2 the results were GIV-Gai inh -32.2*.
Screening Cn1nnc2c(NCC3CCCO3)ncnc21 (stereo not given) returned GIV-Gai inh 107.3.
Screening Cc1ccc(CSc2nnc3c(=O)n(-c4cc(C)cc(C)c4)ccn23)cc1 returned GIV-Gai inh 106.9.
For O=c1ccn(-c2cccc(F)c2)nc1-c1nc(-c2ccc(F)cc2)no1 the results were GIV-Gai inh 102.4.
`COc1c(Cl)cc(Cl)cc1C1N(Cc2ccc(Cl)cc2)CCN1Cc1ccc(Cl)cc1` gave GIV-Gai inh 111.1.
`O=C(NCc1cccnc1)c1nnc(-c2ccc(S(=O)(=O)N3CCCC3)cc2)o1` gave GIV-Gai inh 97.5.
`CN(Cc1ccccc1)S(=O)(=O)c1cc(-c2noc(C3CC3)n2)cs1` gave GIV-Gai inh 102.0.

These rows are one share of the data (hit frequency here may not be typical).
